# Source: PubChem
# MenB inh: blocks the Mycobacterium tuberculosis MenB enzyme. MenB enzyme assay, absorbance read-out; some hits fall short of the stated cut. inhibition, %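 (about 12 µg/mL by stock and volumes)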. P9WNP5. 0.43% of 100,000 active;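 active = mean of two replicates above 30%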;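 note: 0% = no compound and 100% = wells with inactive enzyme; the first replicate is given; strong numbers were not always called active; inactives centre near -10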
# Target sequence (P9WNP5 whole entry, looked up): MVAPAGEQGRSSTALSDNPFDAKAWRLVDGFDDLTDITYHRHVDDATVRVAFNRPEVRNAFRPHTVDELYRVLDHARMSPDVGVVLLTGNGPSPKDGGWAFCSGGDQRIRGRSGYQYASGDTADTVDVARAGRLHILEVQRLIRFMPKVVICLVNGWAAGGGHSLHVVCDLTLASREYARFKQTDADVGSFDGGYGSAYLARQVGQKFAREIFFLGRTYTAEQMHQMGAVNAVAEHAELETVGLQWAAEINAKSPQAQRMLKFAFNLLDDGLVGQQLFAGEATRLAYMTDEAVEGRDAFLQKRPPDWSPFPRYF
# Mtb MbtI inh: inhibitors of Mycobacterium tuberculosis siderophore enzyme MbtI; P9WFX0; purified MbtI enzyme, fluorescence intensity read-out; inhibition, %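 (about 17 µg/mL by stock and volumes)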; 0.89% of 100,000 active;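 active = above 50% in both replicates, above 80% if mildly self-fluorescent; inactive = the rest, strongly fluorescent compounds included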;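 note: 0% = mean of negative and 100% = mean of positive controls; one replicate is shown; some compounds called inactive have numbers as strong as hits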
# Target sequence (P9WFX0 whole entry, looked up): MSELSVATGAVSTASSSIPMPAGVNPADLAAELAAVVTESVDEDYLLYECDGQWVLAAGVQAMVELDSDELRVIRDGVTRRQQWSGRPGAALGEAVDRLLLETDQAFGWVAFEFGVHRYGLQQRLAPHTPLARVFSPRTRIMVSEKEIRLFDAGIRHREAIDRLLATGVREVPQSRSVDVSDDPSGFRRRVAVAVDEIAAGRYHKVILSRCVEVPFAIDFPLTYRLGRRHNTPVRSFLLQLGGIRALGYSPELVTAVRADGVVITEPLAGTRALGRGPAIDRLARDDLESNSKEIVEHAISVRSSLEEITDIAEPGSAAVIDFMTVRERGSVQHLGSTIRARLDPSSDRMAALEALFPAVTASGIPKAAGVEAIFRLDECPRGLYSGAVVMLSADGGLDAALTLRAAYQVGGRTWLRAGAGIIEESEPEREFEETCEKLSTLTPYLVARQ
# Polio RdRp inh: inhibitors of poliovirus RNA polymerase binding and polymerization. 0.66% of 150,000 active. poliovirus polymerase elongation, fluorescence polarization; active compounds read low. % elongation, % (compound at 16.7 µg/mL). P03300; in the data active = % elongation below about 90%; note: some results filed as inactive read as strong as hits
# Polio RdRp inh intensity: also measured in Polio RdRp inh; calls as there; % elongation; measured here: total intensity read-out; formula for this scale not given here;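 total fluorescence in place of polarization; lower means less elongation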
# * hit, by the source's call; / = not tested or not shown.
SMILES,MenB inh,Mtb MbtI inh,Polio RdRp inh,Polio RdRp inh intensity
CCCCn1c(CCC(=O)O)nc2cc(S(=O)(=O)N3CCOCC3)ccc21,-18,4,100,102
O=C(CCC(=O)c1ccc(F)cc1)OC1CCOC1=O (configuration not stated),-13,-1,106,107
Cc1ccc(S(=O)(=O)N(O)c2ccc(Cl)cc2)cc1,/,83*,99,100
NN(CCc1ccncc1)C1=NS(=O)(=O)c2ccccc21,6,3,103,103
COc1ccccc1C(=O)NCC(=O)Nc1ccc(-c2nnc3n2CCCCC3)cc1,-3,-5,101,110
CCC(=O)NC(c1ccco1)c1cc(Cl)c2cccnc2c1O (configuration not stated),-75,-5,97,125
CN(C(=O)c1noc2c1CCCC2)c1ccccc1Cl,1,-27,103,103
O=C(CCCSc1nnc(-c2cccs2)n1CC1CCCO1)c1ccccc1 (configuration not stated),-26,9,104,104
O=C1c2ccccc2C(=O)C1(c1ccccc1)N1CCN(c2ccccc2)CC1,-2,9,99,97
COc1ccc(C(C(C#N)C#N)C2C(=O)N(Cc3ccccc3)N=C2C)cc1 (configuration not stated),-26,1,101,101
CCn1c(C(=O)N2CCCC(C(=O)O)C2)cc2sccc21 (configuration not stated),-11,22,102,97
CC(=O)Nc1ccccc1NC(=O)C(C)C,-24,0,102,101
CCn1nccc1C(=O)O,-1,-8,98,100
Cc1ccc(C)n1-c1ccc2c(c1)OCCO2,/,0,103,96
CC(C)N1CN=C(Nc2nc3ccccc3o2)NC1,6,6,103,101
COc1ccc(N=Cc2ccc3ncccc3c2)cc1N,/,6,69,191
C=CCN=c1scc(-c2ccc(O)c(C(N)=O)c2)n1N=C1CCCC1,-16,3,108,112
CC(C)P(=O)(Cc1cccc(C#N)c1)C(C)C,-15,3,102,107
NC(=O)COc1ccc(C23CC4CC(CC(C4)C2)C3)cc1,/,0,101,105
Cc1cc(C=Cc2ccc3cc(N(C)C)ccc3[n+]2C)c(C)n1-c1ccccc1,0,/,108,165
O=C(/C=C/c1cn(-c2ccccc2)nc1-c1ccc(F)cc1)N1CCOCC1,/,-12,103,100
Cc1c(C(=O)NCCc2ccc(Cl)cc2)oc2ccc(S(=O)(=O)N3CCC(C)CC3)cc12,-4,-9,104,107
COC(=O)/C=C1/Nc2ccccc2SC1=O,-9,/,101,105
Cc1ccc(C(=O)Nc2ccc(S(=O)(=O)N3CCOCC3)cc2)cc1C,-12,0,99,100
Cc1ccc(N=Nc2c(N)n[nH]c2N)cc1,-184,24,100,101

# In a second layout: five of the compounds above
# Below each SMILES: MenB inh | Mtb MbtI inh | Polio RdRp inh | Polio RdRp inh intensity
> Cc1ccc(N=Nc2c(N)n[nH]c2N)cc1
  -184 | 24 | 100 | 101
> CCn1c(C(=O)N2CCCC(C(=O)O)C2)cc2sccc21 (configuration not stated)
  -11 | 22 | 102 | 97
> C=CCN=c1scc(-c2ccc(O)c(C(N)=O)c2)n1N=C1CCCC1
  -16 | 3 | 108 | 112
> CCn1nccc1C(=O)O
  -1 | -8 | 98 | 100
> O=C1c2ccccc2C(=O)C1(c1ccccc1)N1CCN(c2ccccc2)CC1
  -2 | 9 | 99 | 97

# (continued)
SMILES,MenB inh,Mtb MbtI inh,Polio RdRp inh,Polio RdRp inh intensity
O=C(Nc1ccccc1)OCc1ccc(-c2cc(C(F)(F)F)cc(C(F)(F)F)c2)o1,8,6,103,107
CC1=C(Cc2cc3ccc(=O)oc3cc2O)CC(C)(C)CC1,-36,106,104,106
CN(C)CCNC(=O)c1ccccn1,-4,4,102,98
Cc1c(N=c2scc(-c3ccc4c(c3)NC(=O)CO4)n2Cc2ccccc2)c(=O)n(-c2ccccc2)n1C,-2,12,93,90
c1cncc(CNCc2cccnc2)c1,-4,-4,101,102
Cc1cc(C)n(/N=C2/C(=O)Nc3ccc(Br)cc32)c(=O)c1C#N,-28,-18,100,96
CCOC(=O)c1ccc(COc2nc3ccccc3nc2-c2ccccc2NC(C)=O)o1,6,-4,99,100
C=CCn1c(CNC(=O)c2cccs2)nnc1SCC(=O)c1ccc(Br)cc1,-13,9,98,101
O=C(OC1CCCCC1=O)c1ccc(-c2cccc(C(F)(F)F)c2)o1 (configuration not stated),5,121,102,101
C=CCn1c(CNC(=O)c2ccccc2)nnc1SCC(=O)N1CCN(c2ccccc2)CC1,-15,-7,99,100
CCOC(=O)c1c(C)[nH]c(C(=O)C(C)OC(=O)C2CC(=O)N(CCc3ccccc3)C2)c1C (configuration not stated),-38,4,106,110
COC(=O)c1ccc(NCC(=O)N2CC(C)CC(C)C2)cc1 (configuration not stated),/,-4,102,97
Cc1ccc(-c2cc3c4c(C)n(Cc5ccc6c(c5)OCO6)c(C)c4c(C)nn3c2)o1,-17,6,99,103
CSc1nc(C)nc(N/C=C(\C#N)S(=O)(=O)c2ccccc2Cl)n1,7,-11,99,102
Cc1cccc(NC(=O)Nc2nnc(N3CCCCC3C)s2)c1C (configuration not stated),-61,1,105,106
O=C1CN(c2ccc(Cl)cc2)C2(CCCCC2)S1,-2,-6,101,105
CN(C)C(=O)CN1C(=O)c2ccccc2S1(=O)=O,-1,-13,104,103
COc1ccc(C2=C/C(=C(/C#N)C(=O)NCc3ccco3)c3cc(C)ccc3O2)cc1,-162,34,44,238
Cc1cc(C)c2c(CC(=O)Nc3sc4c(c3C(=O)NCC3CCCO3)CCC4)coc2c1 (configuration not stated),-5,10,100,104
CCOC(=O)c1ccc(OCc2nc(-c3ccc(OC)c(OC)c3)no2)cc1,7,-4,103,102
CCCCOC(=O)Nc1cc(C)ccc1C,-17,-8,98,105
c1ccc(Cn2nnnc2-c2ccco2)cc1,/,-18,101,101
COc1ccccc1OCc1nnc(SCC(=O)N(C)C)o1,-10,5,102,102
Cc1cc(C)n(-c2nc3cc(Cl)ccc3nc2Nc2ccc3c(c2)n(C)c(=O)n3C)n1,-28,-8,99,113
O=C(N1CC2CC(C1)c1cccc(=O)n1C2)C(F)(F)F (configuration not stated),-27,1,103,100
# More compounds follow.
SMILES,MenB inh,Mtb MbtI inh,Polio RdRp inh,Polio RdRp inh intensity
CCC(N)C12CC3CC(CC(O)(C3)C1)C2 (configuration not stated),7,-4,101,103
O=C(CN1CCC(C(=O)Nc2ccccc2)CC1)Nc1cc(C(F)(F)F)ccc1-n1cncn1,-34,4,102,95
O=C(OCc1csc(-c2ccccc2)n1)c1ccccc1,/,0,101,105
CN1CCN(C(=O)Cc2ccccc2)CC1,11,-16,101,105
CCOc1ccc(N(CC)C(=O)C2CCCN(S(=O)(=O)c3cccc4nsnc34)C2)cc1 (configuration not stated),-14,7,102,103
O=C1Nc2ccc(Cl)cc2C12SCCS2,4,4,100,102
O=C(NC(=S)Nc1ccccc1)c1ccco1,-61,-7,99,104
CCCN(S(=O)(=O)c1ccc(S(=O)(=O)N(CC)CC)cc1)S(=O)(=O)c1ccc2c(c1)OCCO2,-7,-8,103,102
CCOc1ccc(C2c3c(oc4ccc(F)cc4c3=O)C(=O)N2CC2CCCO2)cc1 (configuration not stated),-1,0,102,97
O=C(Sc1nnc(-c2ccco2)n1-c1ccccc1)c1c(F)cccc1F,-17,-9,106,110
O=C(NCCC1=CCCCC1)c1ccc(F)c(S(=O)(=O)N2CCOCC2)c1,-12,4,106,106
Cc1cc(NC(=O)C(CC(C)C)NC(=O)C2CCC(C)CC2)ccc1Br (configuration not stated),6,-8,102,105
COc1ccc(C2=C(C)C(N3CCC(C(=O)NCc4ccccc4)CC3)=NS2(=O)=O)cc1,5,-10,101,104
O=c1c2ccc(C(F)(F)F)cc2nc2n1CCC2,-2,-7,97,105
CC(C)Oc1ccccc1OCCCCn1cncn1,-12,-18,100,102
COC(=O)Cc1nc(-c2ccccc2)cs1,6,10,86*,89*
CC1=C(C(=O)OC2C3CC4CC(C3)CC2C4)C(CC(=O)O)C(=O)N1 (configuration not stated),-27,12,102,101
O=C(CCSC1=NCCS1)Nc1ccccc1Cl,-33,-30,102,100
C[C@]12CCC(=O)C=C1CC[C@@H]1[C@@H]2[C@@H](O)C[C@@]2(C)[C@H]1CC[C@]2(O)C(=O)CO,-11,-10,99,101
Cc1csc2c(=O)nc3c(C#N)n[nH]n3c12,-7,108,101,103
Nc1cc(=O)[nH]c(=O)n1Cc1ccncc1,-7,-7,104,103
Cc1ccc(C(C2C(=O)CC(C)(C)CC2=O)C2C(=O)CC(C)(C)CC2=O)s1,-65,/,103,107
C/C=C/C(=O)OCn1nnc2ccccc2c1=O,6,16,106,100
COc1cc(OC)c(C2=NOC(C(=O)Nc3cc(C)nn3-c3ccccc3)C2)cc1Cl (configuration not stated),3,-37,99,100
COc1ccc(NC(N)=O)cc1,-11,-5,102,99
# New compounds follow.
SMILES,MenB inh,Mtb MbtI inh,Polio RdRp inh,Polio RdRp inh intensity
CCN=c1sc(CC(=O)O)c(-c2ccc(Cl)cc2)n1CC,7,11,99,104
CCNC(=O)CCSc1nnc(-c2ccccc2C)o1,17,-1,102,103
NC12CCc3c(no[n+]3[O-])C1(O)CC(c1ccccc1)=[N+]2[O-] (configuration not stated),7,9,100,100
CN1CCC(=NNC(N)=S)CC1,-42,-7,106,101
O=C(O)COCC(=O)N1CCN(Cc2ccc3c(c2)OCO3)CC1,-32,4,104,106
COc1ccc2nc(SCC(=O)NC3CCCCC3C)c(C#N)cc2c1 (configuration not stated),0,-6,100,98
CCn1c(SCC(=O)N/N=C/c2cccs2)nc2ccccc21,-36,-1,100,100
Cc1ccc(-c2csc(NC(=O)COC(=O)C3CC(=O)N(Cc4ccco4)C3)n2)cc1 (configuration not stated),-32,-28,98,99
CCOC(=O)N1CCC(N2Cc3cccc(C(=O)N4CCN(c5cccc(C)c5C)CC4)c3C2=O)CC1,-10,-8,102,102
COC(=O)c1cnc(N(C)Cc2ccccc2)c2ccccc12,-11,118,99,101
COc1ccccc1N1CCN(CCCC#N)CC1,16,-6,101,102
NC(=O)N/C(CSCc1ccc(Cl)cc1)=N/O,-14,-1,102,101
CC(Sc1nc2ccccc2c(=O)[nH]1)C(=O)Nc1ccc2c(c1)OCO2 (configuration not stated),-31,-18,100,88
COc1ccc(CCNC(=O)CSc2nc(-c3ccco3)cc(C(F)(F)F)n2)cc1OC,-14,-7,104,103
CC(C(=O)Nc1ccnn1C(C)C)N(C)CC(=O)Nc1ccccc1Cl (configuration not stated),-19,-3,96,98
CSc1nccc(-c2ccc(Cl)cc2)n1,-15,4,102,101
CCOC(=O)/C=C1\SCC(=O)N1CCOC(=O)c1c(-c2ccccc2)noc1C,-41,-6,124,118
CCN(CC)c1ncn(Cc2c(Cl)cccc2Cl)c2ncnc1-2,-13,/,98,108
CCCCCC(=O)Nc1ccc(C(=O)CSc2nnc3n2CCCCC3)cc1,-14,-6,105,106
Cc1cccc(NC(=O)CC2S/C(=N/c3nccs3)N(C)C2=O)c1 (configuration not stated),-13,-8,100,102
c1ccc(N2CCN(c3ccccc3)C2c2cccs2)cc1,-76,-16,104,106
CCOC(=O)c1oc2nc(-c3ccccc3)cc(C)c2c1NC(=O)Nc1ccc(Cl)cc1,-10,-5,100,95
Cc1[nH]n(-c2ccccc2)c(=S)c1C=Nc1cccc(Br)c1,-76,-4,100,95
Nc1ccc(C(=O)O)c(O)c1,8,-50,99,101
O=c1c(Cl)c(N2CCOCC2)cnn1Cc1ccccc1,-7,4,102,105

# Molecules above that have a COOH group (7):
SMILES,MenB inh,Mtb MbtI inh,Polio RdRp inh,Polio RdRp inh intensity
CCCCn1c(CCC(=O)O)nc2cc(S(=O)(=O)N3CCOCC3)ccc21,-18,4,100,102
CCn1c(C(=O)N2CCCC(C(=O)O)C2)cc2sccc21 (configuration not stated),-11,22,102,97
CCn1nccc1C(=O)O,-1,-8,98,100
CC1=C(C(=O)OC2C3CC4CC(C3)CC2C4)C(CC(=O)O)C(=O)N1 (configuration not stated),-27,12,102,101
CCN=c1sc(CC(=O)O)c(-c2ccc(Cl)cc2)n1CC,7,11,99,104
O=C(O)COCC(=O)N1CCN(Cc2ccc3c(c2)OCO3)CC1,-32,4,104,106
Nc1ccc(C(=O)O)c(O)c1,8,-50,99,101

# Following part
SMILES,MenB inh,Mtb MbtI inh,Polio RdRp inh,Polio RdRp inh intensity
Cc1ccc(OCc2nnc(SCC(=O)CC(=O)Nc3ccccc3)o2)cc1,14,10,101,101
CC(=O)N1CCN(C(=O)COC(=O)c2ccc(C(C)C)cc2)CC1,11,4,91,101
CCSC1(SCC)N=C(N)C2(C#N)C(c3ccc(NC(C)=O)cc3)C12C#N (configuration not stated),26,48,99,101
O=C(Nc1cccc(C(=O)N2CCN(C(c3ccccc3)c3ccccc3)CC2)c1)c1ccco1,4,8,101,104
O=S(=O)(NCc1ccco1)c1ccc(F)c(F)c1,/,-8,101,106
Cc1ccc(/C=C2/SC(=S)N(C(C)C(=O)O)C2=O)o1 (configuration not stated),-289,-3,99,106
O=C(CO)c1c[nH]c2ccccc12,-15,0,102,107
COc1cc2nc(-n3nc(C)cc3C)n3nc(-c4ccccc4)nc3c2cc1OC,-1,1,101,98
Cc1ccc(/C=N/n2cnnc2)o1,-9,27,99,103
O=C1CN(C(=O)CSc2cccc[n+]2[O-])c2ccccc2N1,-23,-18,110,113
O=C1CN(C2c3ccccc3CC2NS(=O)(=O)c2ccccc2)CCN1 (configuration not stated),-8,-3,102,106
Cc1ccc2c(c1)c1c3n2CCN(C=O)C3CCC1 (configuration not stated),-10,7,102,104
CCCC(=O)NCCc1nc2ccccc2[nH]1,2,-1,100,101
CC(C)=NNc1nc(Cl)c(C#N)c(Cl)c1Cl,-3,61*,101,99
CC/C(=N\NC(=O)c1cc2c(C)nn(-c3ccccc3)c2s1)C(C)C,-21,-4,105,92
